# A488 fluor: qHTS Assay for Spectroscopic Profiling in A488 Spectral Region; compound autofluorescence, A488 spectral region, dye equivalency; stronger effect = higher value; max dye equivalency, M; 0.1% of 59,000 active; active = above 10 nM dye equivalent; inconclusive = 1 to 10 nM; inactive = 1 nM or less; about half of its hits are not listed in these tables;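 note: highest value over a series up to 38 µM; compound alone in buffer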
#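 Spectroscopic profiling in the A488 region: compounds in pH 8.0 Tris (100 mM), 15 min RT, CCD imaging with 480 nm excitation and 540 nm emission; responses normalized against A488 dye standards.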
# AID923: qHTS Assay for Allosteric/Competitive Inhibitors of Caspase-1: Spectroscopic Profiling in AFC Spectral Region; compound fluorescence, AFC spectral region (405/520 nm); almost no hit is shown here; Potency, µM (series often up to 57.5 µM), without a hit: top-dose fluorescence increase, most hits filed as activators; 1.1% of 75,000 active; AID 923, 2007; active = well fitted activation curve with a large enough effect; inconclusive = small, poorly fitted or top-dose-only effect;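 note: potency is the fitted concentration of half-maximal effect; 0% is about no effect; scaled to a free AFC standard on each plate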
#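 Baseline compound fluorescence (AFC region, 405 nm ex/520 nm em) taken from the intercept of kinetic reads with 50 nM caspase-1 and 5 uM Ac-WEHD-AFC; normalized to an on-plate AFC standard curve; compounds titrated up to 57 uM.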
# A647 autofl: qHTS Assay for Spectroscopic Profiling in A647 Spectral Region | max dye-equivalent concentration, M | 59,000 tested, under 10 active | Compound fluorescence, A647 channel (570/671 nm), Tris buffer; active means above 1 µM dye equivalent; inconclusive means 0.1 to 1 µM; inactive means 0.1 µM or less;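 note: values scaled relative to a standard on each plate; highest value over a series up to 38 µM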
#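 Buffer was dispensed, compounds and Alexa 647 standards were pin-transferred, and plates sat 15 min at room temperature. Intensity at 570/671 nm was then converted to dye-equivalent concentration using the plate's A647 standard curve.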
# Resorufin fluor: qHTS Assay for Spectroscopic Profiling in Resorufin Spectral Region; Compound fluorescence, resorufin region 547/598 nm, buffer; stronger effect = higher value; max dye-equivalent concentration, M; 0.04% of 59,000 active; active = above 10 nM dye equivalent; inconclusive = 1 to 10 nM; inactive = 1 nM or less; a few of its hits are not listed in these tables; note: highest value over a series up to 38 µM
#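 Intrinsic fluorescence profiled in the resorufin window (ex 547 nm, em 598 nm) after 15 min at room temperature in pH 8.0 Tris buffer (100 mM); responses normalized against a six-point resorufin standard series as dye-equivalent concentration.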
# TSHR agonist: qHTS Assay for Agonists of the Thyroid Stimulating Hormone Receptor; 0.48% of 73,000 active; Potency, µM (top dose mostly 57.1 µM), for the others: top-dose activation, hits mostly activators; AID 926, 2007; HEK293-CNG-TSHR cells (CNG channel as cAMP sensor), membrane potential dye, cAMP; Thyrotropin receptor (Homo sapiens), P16473; active = well fitted activation curve of enough size with the parental cells flat; inconclusive = any curve in the parental cells; inactive = parental cells flat and receptor cells flat or falling; note: potency is the fitted concentration of half-maximal effect; % of control where 0% means no effect; weak receptor curves with flat parental cells got no call and are not listed
# Target sequence (P16473 whole entry, looked up): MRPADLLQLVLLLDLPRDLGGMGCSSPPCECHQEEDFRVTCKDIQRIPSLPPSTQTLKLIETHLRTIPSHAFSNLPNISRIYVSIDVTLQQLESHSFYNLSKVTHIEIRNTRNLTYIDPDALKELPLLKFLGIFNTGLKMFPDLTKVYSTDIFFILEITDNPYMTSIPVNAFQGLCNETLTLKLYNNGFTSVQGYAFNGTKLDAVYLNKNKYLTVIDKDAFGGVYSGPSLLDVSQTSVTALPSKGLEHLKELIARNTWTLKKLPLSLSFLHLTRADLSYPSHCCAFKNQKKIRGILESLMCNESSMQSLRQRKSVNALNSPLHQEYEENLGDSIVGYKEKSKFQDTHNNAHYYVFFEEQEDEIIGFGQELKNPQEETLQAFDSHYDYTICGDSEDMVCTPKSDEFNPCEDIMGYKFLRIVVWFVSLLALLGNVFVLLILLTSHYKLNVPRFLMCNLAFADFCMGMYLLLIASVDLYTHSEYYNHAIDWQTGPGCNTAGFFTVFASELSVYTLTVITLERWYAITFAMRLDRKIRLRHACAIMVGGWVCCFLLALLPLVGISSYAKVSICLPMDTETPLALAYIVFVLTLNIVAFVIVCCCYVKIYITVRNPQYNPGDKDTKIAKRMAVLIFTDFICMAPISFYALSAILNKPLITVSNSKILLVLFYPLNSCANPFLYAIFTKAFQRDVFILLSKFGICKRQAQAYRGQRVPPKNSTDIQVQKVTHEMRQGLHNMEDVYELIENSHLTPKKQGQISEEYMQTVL
#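 HEK 293 cells stably expressing TSHR and a modified CNG channel, with CNG-only parental cells as counterscreen, were preloaded 60 min at room temperature with membrane potential dye containing 100 uM RO 20-1724. Compound exposure was 30 min, and depolarization was read as fluorescence at 590 nm.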
# * hit, by the source's call; i = inactive; ? = inconclusive; . = not tested or not shown; & = joins results of further samples; [ ] = dose if it differs, or a comment. Some of the compounds tested. The share of hits here may be higher or lower than overall.
SMILES,A488 fluor,AID923,A647 autofl,Resorufin fluor,TSHR agonist
c1ccc(-c2noc(-c3ccc4c(c3)OCO4)n2)nc1,i,0.7%,3.1e-08,i,10%
CC(NC(=O)CSc1nc2ccccc2c(=O)n1CCCO)c1ccccc1 (stereo not given),i,0.4%,7.1e-09,i,7%
CC(C)C(NC(=O)C1CCCCC1)C(=O)Nc1ccncc1 (stereo not given),i,-1.2%,1.9e-08,i,?
COc1ccc(CC(=O)N(Cc2cc3cc(OC)ccc3[nH]c2=O)C(C)C)cc1,i,-1.7%,6.7e-09,i,19%
COc1ccc(CNc2nc(-c3c(C)noc3C)nc3ccccc23)c(OC)c1,i,2.2%,8.8e-09,i,?
COc1cc(-c2nc(-c3ccc(-c4ccccc4)nc3OC)no2)cc(OC)c1OC,i,-0.7%,1e-09,i,5%
CCc1ccccc1NC(=O)c1cc(C2CC2)on1,.,4.2%,.,.,13%
O=C(CCCN1C(=O)C2C3C=CC(C3)C2C1=O)N1CCN(c2ccccc2)CC1 (stereo not given),i,-1.5%,2.9e-08,i,-3%
CCc1c2c(nc3ccc(OC)cc13)COC2,.,-3.1%,.,.,25%
CCc1cc2c(=O)c(-c3nc4ccccc4n3C)c(C)oc2c(CN2CCOCC2)c1O,.,2.5%,.,.,-2%[11.4 µM]
NCCCCCc1nnc(SCC(=O)c2ccc(Cl)cc2)o1,i,0.3%,1e-09,i,14%
COc1cc(C(=O)Nc2ccc3c(c2)OCCO3)ccc1OC(C)C,i,-2.3%,2.9e-09,i,2%
O=C(NS(=O)(=O)c1ccccc1)c1ccccc1O,i,2.2%,2.9e-09,i,2%
CCCCNC(=O)Nc1c(C(=O)OCC)[nH]c2ccccc12,i,-1.5%,2.1e-08,i,.
CSc1ncccc1C(=O)OCC(=O)N(CC(C)C)C1CCS(=O)(=O)C1 (stereo not given),i,-1.5%,1e-09,i,12%
CN(CCc1ccccn1)C(=O)c1nn2c(C(F)(F)F)cc(-c3ccco3)nc2c1Cl,.,16%,.,.,16%[11.4 µM]
COc1ccc(NC(=O)CCCn2c(=O)[nH]c3ccccc3c2=O)cc1,i,1.3%,1e-09,i,-1%
O=C(CCNS(=O)(=O)c1ccc(Br)s1)N1CCN(c2ccccc2)CC1,i,-0.5%,9e-09,i,4%
OCc1ccccc1,.,1.9%,.,.,?
CCCCN1C(=O)C2C(C(=O)Nc3cccc(OC)c3)C3C=CC2(O3)C1C(=O)NC1CCCCC1C (stereo not given),i,1.2%,1.3e-09,i,7%

# Entries of single compounds, quoted from the list:
# CCc1c2c(nc3ccc(OC)cc13)COC2 as listed: A488 fluor = .; AID923 = -3.1%; A647 autofl = .; Resorufin fluor = .; TSHR agonist = 25%
# COc1ccc(CC(=O)N(Cc2cc3cc(OC)ccc3[nH]c2=O)C(C)C)cc1 as listed: A488 fluor = i; AID923 = -1.7%; A647 autofl = 6.7e-09; Resorufin fluor = i; TSHR agonist = 19%

# The list continues:
SMILES,A488 fluor,AID923,A647 autofl,Resorufin fluor,TSHR agonist
CCOCCCNCc1ccc(OC)c(OC)c1,i,0.0%,1.2e-09,i,-5%
O=C(C1CC1)N1CCc2cc(Br)cc(S(=O)(=O)NC3CCCCC3)c21,i,0.5%,2.7e-09,i,.
CCCCn1c(CCC(=O)O)ccc1-c1cccs1,.,21%,.,.,?
C=Cc1c(C)c2cc3[nH]c(cc4nc(cc5nc(cc1[nH]2)C(C)=C5CCC(=O)O)C(CCC(=O)O)=C4C)c(C)c3C=C,i,3.9%&-2.3%,7.6e-08,i,-6%
COC(=O)Nc1c(-c2ccccc2)nc2ccc(C)cn12,i,0.1%,1.4e-08,i,?
Cc1oc(-c2cccc(Cl)c2)nc1CN1CCCC(C(=O)NC(C)c2ccc3c(c2)OCCO3)C1 (stereo not given),.,0.7%,.,.,5%
O=S1(=O)CCN2C(c3ccco3)=CSC2=N1,i,-0.7%,1e-09,i,10%
O=C(C1CCN(c2nnc(-n3cccc3)s2)CC1)N1CCN(Cc2ccc3c(c2)OCO3)CC1,.,-4.2%,.,.,18%
CO[C@H]1COC(=O)C/C=C\[C@H](C)[C@@H](OC)COC(=O)[C@H](C)COC(=O)C/C=C\[C@@H]1C,.,-2.1%[11.5 µM],.,.,-8%[11.4 µM]
Cc1occc1C(=O)n1cnc2ccccc21,i,1.1%,1.9e-08,i,3%
CCOC(=O)NC(=O)COC(=O)Cc1cc(OC)c(OC)c(OC)c1,i,-1.3%,3.8e-08,i,0%
C1CCN(c2nc3nonc3nc2N2CCCCC2)CC1,.,0.5%,.,.,?
Cc1cc(N(CN2CCCC2=O)C(=O)c2ccc(F)cc2)no1,i,0.8%,1e-09,i,-1%
Cc1c(-c2ccco2)[n+](=O)c2c(n1[O-])CCCCC2,.,-0.8%,.,.,-4%
C=CCOC(=O)C1C(=O)CC(C)(O)C(C(=O)OCC=C)C1c1ccc(OC)cc1 (stereo not given),i,0.6%,4.7e-09,i,?
CCOC(=O)N1CCC(NC(=O)CSc2cc(=O)n(C)c3ccc(Cl)cc23)CC1,i,-0.3%,1e-09,i,0%[11.4 µM]
O=C1Nc2c(c(=O)[nH]c(=O)n2-c2ccccc2)C1(Nc1ncccn1)C(F)(F)F (stereo not given),i,-0.8%,4.9e-08,i,3%
Cc1cc(S(=O)(=O)NCc2cccnc2)ccc1-n1cnnn1,i,0.4%,6e-08,i,-1%
Cc1cc(N2CCN(C(=O)c3ccco3)CC2)nc(-c2ccccc2)n1,i,0.3%,2.8e-09,i,1%
Cc1onc(-c2ccccc2Cl)c1C(=O)NCc1cccnc1,.,-0.3%,.,.,-4%

# 5 structures from above, sorted by molar mass, rising:
SMILES,A488 fluor,AID923,A647 autofl,Resorufin fluor,TSHR agonist
Cc1occc1C(=O)n1cnc2ccccc21,i,1.1%,1.9e-08,i,3%
C1CCN(c2nc3nonc3nc2N2CCCCC2)CC1,.,0.5%,.,.,?
Cc1cc(N(CN2CCCC2=O)C(=O)c2ccc(F)cc2)no1,i,0.8%,1e-09,i,-1%
Cc1onc(-c2ccccc2Cl)c1C(=O)NCc1cccnc1,.,-0.3%,.,.,-4%
O=C(C1CC1)N1CCc2cc(Br)cc(S(=O)(=O)NC3CCCCC3)c21,i,0.5%,2.7e-09,i,.

# The list continues.
SMILES,A488 fluor,AID923,A647 autofl,Resorufin fluor,TSHR agonist
CCCCS(=O)(=O)Nc1ccc(C(=O)NCC2CCCO2)cc1 (stereo not given),i,-3.5%,1.8e-08,i,2%
COc1ccccc1C1C(C(N)=O)=C(C)Nc2nc(-c3ccc(Cl)cc3)nn21 (stereo not given),.,2.0%,.,.,1%
COc1ccc(C(=O)N2CCC3(CC2)CN(CC(C)C)C3)cc1,i,4.5%,3e-09,i,16%
O=C(c1ccncc1)N1C2C=CC(C2)C1(C(F)(F)F)C(F)(F)F (stereo not given),i,-1.3%,1.6e-08,i,-4%
COc1cccc(-c2cc(C(F)(F)F)nc(N3CCN(c4ccccc4)CC3)n2)c1,i,0.9%,2.5e-08,i,13%
COc1cc(NC(=O)CN2C(=O)NC(C)(CC(C)C)C2=O)cc(OC)c1 (stereo not given),i,-0.7%,3.5e-08,i,-7%
CCCCOC(=O)c1cccc(NC(=O)CC)c1,i,0.7%,1e-09,i,-2%
O=C(CSc1nnc(-c2ccco2)n1CC1CCCO1)N1CCCCC1 (stereo not given),i,-1.8%,6.3e-09,i,-5%
Cc1c(NC(=O)c2noc3c2CCc2ccccc2-3)c(=O)n(-c2ccccc2)n1C,.,2.0%,.,.,3%
O=C1Nc2ccccc2C12Nc1ccccc1S2 (stereo not given),i,1.4%,8.1e-09,i,22%
Cc1ccc2oc(=O)c3cnn(CC(=O)N4CCCCCC4)c3c2c1,.,0.3%,.,.,25%
CCOC(=O)N1CCN(C(=O)c2cn(CC)c3ccc(S(=O)(=O)N4CCCC4)cc3c2=O)CC1,i,-0.1%,2.9e-08,i,-1%
COC(=O)c1ccc(Cn2nnc3ccccc3c2=O)o1,i,0.1%,3.8e-08,i,11%
Cc1ccccc1Cn1cc(S(=O)(=O)CC(=O)N2CCCCC2)c2ccccc21,i,2.1%,2.2e-08,i,?
CC1(C)CC(=O)CC(=Nc2ccc(C(=O)O)cc2)C1,i,5.8%,2.1e-09,i,2%
CCCCNC(=O)c1cccc(C(=O)NCCCC)c1,i,1.6%,3e-09,i,-1%
COc1ccc(C(=O)N2CCN(c3c(C)cccc3C)CC2)cc1OC,.,4.0%,.,.,10%
Cc1cc(C)c2c(=O)[nH]c(=O)n(Cc3ccccc3)c2n1,i,1.2%,1.2e-08,i,?
Cc1ccc(C(C(=O)NCc2ccc(F)cc2)N(C(=O)c2csnn2)C2CC2)o1 (stereo not given),i,-0.2%,5e-09,i,-1%
CCc1nnc2c3cnn(-c4ccccc4)c3ncn12,i,1.7%,1e-09,i,?
CCOC(=O)N1CCN(C(=O)c2cn(C)c(=O)c3c2c2ccccc2n3C)CC1,i,0.9%,1.5e-08,i,0%
CN1CC(=O)N(CC(=O)Nc2ccc(Cl)c(C(F)(F)F)c2)C1=O,i,-0.4%,1e-09,i,-4%
CCCOc1ccc(N2CC(C(=O)Nc3ccccc3F)CC2=O)cc1 (stereo not given),i,1.7%,1.6e-08,i,5%
COc1ccc(-n2nnnc2SCC(=O)c2ccc(O)c(O)c2)cc1,i,-1.3%,1.1e-08,i,8%
Cc1nn(CC(=O)Nc2ccc(C(=O)N(C)C)cc2)c(=O)c2ccccc12,i,-0.4%,6.1e-09,i,4%
O=C(NCC1CCCO1)c1ccc2nc(N3CCCCC3)sc2c1 (stereo not given),.,-3.0%,.,.,3%
O=C(c1ccco1)n1nc(NCc2ccccc2)nc1NCc1ccccc1,i,7.1%,1e-09,i,?
COCC(C)n1c(C)cc(C(=O)CSc2nc3ccccc3c(=O)[nH]2)c1C (stereo not given),i,2.1%,1.5e-08,i,?
Cc1ccc(NC(=O)c2cc(NC(=O)C3CC=CCC3C(=O)O)ccc2N2CCOCC2)cc1 (stereo not given),.,-0.6%,.,.,-5%
O=C1c2ccccc2C(=O)N1CCn1nc(Cl)nc1Cl,i,-1.7%,2.1e-08,i,2%
CC1CCN(c2c(NCc3ccc(C(=O)NCC4COc5ccccc5O4)cc3)c(=O)c2=O)CC1 (stereo not given),.,2.5%,.,.,13%
CC(=O)NCC(=O)OCC(=O)Nc1ccc(C(C)=O)cc1,i,-0.1%,1e-09,i,3%
O=C(O)CCCn1nc(-c2ccccc2)c2ccccc21,.,0.0%,.,.,?
Cc1nc2ccccc2nc1-c1ccc(N=[N+]([O-])c2ccc(-c3nc4ccccc4nc3C)cc2)cc1,i,0.7%[11.5 µM],1e-09,i,0%[11.4 µM]
COc1cccc(-n2c(SCC(=O)Nc3cc(C)on3)nc3c([nH]c4ccccc43)c2=O)c1,.,-0.2%,.,.,19%
CCC(NS(=O)(=O)c1ccc(C)cc1)C(=O)N1CCC2(O)CCCCC2C1 (stereo not given),i,-0.1%,4.1e-09,i,3%
Cc1cc2ccccc2cc1CN1CCOCC1,.,3.0%,.,.,23%
O=C(c1ccc2c(c1)OCO2)N1CCCC(c2ccccc2)C1 (stereo not given),i,1.2%,9.2e-09,i,?
CC(=O)c1ccc(N2CCN(C(=O)c3cc4c(-c5ccccc5F)nn(C)c4s3)CC2)cc1,.,2.9%,.,.,13%
COC(=O)[C@@]1(Cc2ccc(OC)cc2)[C@H]2c3cc(C(=O)N4CCCC4)n(CCN4CCOCC4)c3C[C@H]2CN1C(=O)c1ccccc1,.,-0.7%,.,.,?

# High-throughput results as filed in PubChem.
